# A1 apoptosis 2 – blocks A1, raising caspase activity; 24,000 tested, under 10 active; caspase activation, % (test concentration not listed); MEF A1-2A-BIM cells, caspase-Glo luminescence, 3 h; percent of clofoctol response, DMSO zero; in the data active means caspase activation above about 5.9%;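 further: wells of about 30 µL received 50 nL stock; the first replicate is given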
#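 Test system – A1-2A-BIM-expressing MEF cells · Input – 2500 cells/well · Medium – RPMI-1640 growth medium with 10% FBS · Compound dosing – 50 nL pinned compound · Timing – 3 h compound exposure at 37 °C · Technique – Caspase-Glo luminescence (DEVD substrate) · Evaluation – Caspase-3/7 activity from luminescence increase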
# Active calls of the source: *; & = joins results of further samples. The list is partial (hit frequency here may not be typical).
SMILES,A1 apoptosis 2
C[C@@H]1CN([C@@H](C)CO)C(=O)c2cccc(NC(=O)Nc3ccc(C(F)(F)F)cc3)c2O[C@H]1CN(C)S(=O)(=O)c1cn(C)cn1,0.7
C[C@H]1CN([C@@H](C)CO)C(=O)c2cccc(NC(=O)Nc3ccc(C(F)(F)F)cc3)c2O[C@H]1CN(C)C(=O)Nc1ccccc1,-0.3
C[C@@H]1CN([C@H](C)CO)C(=O)c2cc(NC(=O)NC3CCCCC3)ccc2O[C@@H](C)CCCCO[C@@H]1CN(C)C(=O)Nc1ccc(F)cc1,0.7
NC(=O)NCC#Cc1ccc2c(c1)[C@]1(C(=O)N2)[C@H](C(=O)Nc2nc3ccccc3s2)[C@H]2C(=O)O[C@H](c3ccccc3)[C@H](c3ccccc3)N2[C@@H]1c1ccc(OCCO)cc1,-1.3
CNC[C@@H]1Oc2ccc(NS(=O)(=O)c3cn(C)cn3)cc2CC(=O)N([C@@H](C)CO)C[C@H]1C,1.0
Cc1ccc(S(=O)(=O)N(C)C[C@@H]2OCCCC[C@H](C)Oc3ccc(NC(=O)Nc4ccc(C(F)(F)F)cc4)cc3C(=O)N([C@H](C)CO)C[C@@H]2C)cc1,-0.9
C[C@@H]1CN([C@H](C)CO)C(=O)Cc2cc(NC(=O)CCN3CCOCC3)ccc2O[C@H]1CN(C)S(=O)(=O)c1ccccc1,1.1
CNC[C@@H]1Oc2ccc(NC(=O)NC3CCCCC3)cc2C(=O)N([C@@H](C)CO)C[C@H]1C,-0.9
COc1ccc(NC(=O)Nc2ccc3c(c2)C(=O)N([C@H](C)CO)C[C@H](C)[C@H](CN(C)Cc2ccccc2)O3)cc1,0.4
Cc1noc(C)c1S(=O)(=O)Nc1ccc2c(c1)C(=O)N([C@@H](C)CO)C[C@H](C)[C@H](CN(C)CC1CCCCC1)OCCCC[C@@H](C)O2,-0.9
C[C@@H]1CN([C@H](C)CO)C(=O)c2cc(NC(=O)Cn3cnnn3)ccc2O[C@H]1CN(C)Cc1ccc(C(=O)Nc2ccccc2N)cc1,-1.9
C[C@H](CO)N1C[C@H](C)[C@H](CN(C)Cc2ccc(Cl)c(Cl)c2)Oc2c(NC(=O)Nc3ccccc3)cccc2C1=O,0.1
C[C@@H]1CN([C@H](C)CO)C(=O)c2cc(NC(=O)c3ccncc3)ccc2O[C@@H](C)CCCCO[C@H]1CN(C)Cc1ccccc1,0.4
COc1ccc(CN(C)C[C@H]2OCCCC[C@@H](C)Oc3ccc(NC(=O)c4ccncc4)cc3C(=O)N([C@@H](C)CO)C[C@H]2C)cc1,-0.9
CNC[C@H]1Oc2c(NC(=O)Nc3c(C)noc3C)cccc2C(=O)N([C@H](C)CO)C[C@H]1C,-0.3

# The final 2 entries of the part before lead into the next.
SMILES,A1 apoptosis 2
COc1ccc(CN(C)C[C@H]2OCCCC[C@@H](C)Oc3ccc(NC(=O)c4ccncc4)cc3C(=O)N([C@@H](C)CO)C[C@H]2C)cc1,-0.9
CNC[C@H]1Oc2c(NC(=O)Nc3c(C)noc3C)cccc2C(=O)N([C@H](C)CO)C[C@H]1C,-0.3
COCCOC(=O)N1C(=O)[C@@]2(c3ccccc31)[C@H](C(=O)NC[C@H](O)c1ccccc1)[C@H]1C(=O)O[C@H](c3ccccc3)[C@H](c3ccccc3)N1[C@@H]2c1ccc(O)cc1,0.2
C[C@@H]1CCCCO[C@@H](CN(C)C(=O)Cc2ccccc2)[C@@H](C)CN([C@H](C)CO)C(=O)c2cc(NS(C)(=O)=O)ccc2O1,-0.3
CC(C)NC(=O)N(C)C[C@H]1Oc2ccc(NC(=O)CCN3CCOCC3)cc2CC(=O)N([C@H](C)CO)C[C@@H]1C,-1.5
C[C@@H]1CCCCO[C@@H](CN(C)S(=O)(=O)c2cccs2)[C@@H](C)CN([C@@H](C)CO)C(=O)c2cc(NS(C)(=O)=O)ccc2O1,0.0
COc1ccc(S(=O)(=O)N(C)C[C@@H]2Oc3ccc(NC(=O)CCC(F)(F)F)cc3C(=O)N([C@H](C)CO)C[C@H]2C)cc1,-0.2
Cc1noc(C)c1NC(=O)N(C)C[C@@H]1OCCCC[C@H](C)Oc2ccc(NC(=O)c3ccncc3)cc2C(=O)N([C@@H](C)CO)C[C@@H]1C,-0.6
CNC[C@@H]1OCCCC[C@@H](C)Oc2ccc(NC(=O)Nc3cccc4ccccc34)cc2C(=O)N([C@H](C)CO)C[C@@H]1C,0.0
C[C@H](CO)N1C[C@H](C)[C@H](CN(C)C(=O)Nc2ccc(F)cc2)Oc2c(NC(=O)c3cnccn3)cccc2C1=O,-0.1
C[C@H](CO)N1C[C@H](C)[C@@H](CN(C)Cc2ccc3c(c2)OCO3)Oc2ccc(NC(=O)Nc3ccc4c(c3)OCO4)cc2CC1=O,-0.9
COc1ccc(S(=O)(=O)N(C)C[C@H]2Oc3ccc(NC(=O)Nc4ccc(C(F)(F)F)cc4)cc3CC(=O)N([C@@H](C)CO)C[C@H]2C)cc1,0.0
C[C@H]1CCCCO[C@@H](CN(C)C(=O)Nc2ccccc2)[C@@H](C)CN([C@@H](C)CO)C(=O)c2cc(NS(=O)(=O)c3ccc(Cl)cc3)ccc2O1,0.1
COc1ccc(S(=O)(=O)Nc2cccc3c2O[C@H](CN(C)S(=O)(=O)c2ccccc2)[C@@H](C)CN([C@@H](C)CO)C3=O)cc1,1.3
Cc1noc(C)c1NC(=O)Nc1ccc2c(c1)CC(=O)N([C@@H](C)CO)C[C@H](C)[C@@H](CN(C)S(=O)(=O)c1cccs1)O2,1.3
Cc1noc(C)c1S(=O)(=O)Nc1ccc2c(c1)C(=O)N([C@@H](C)CO)C[C@H](C)[C@H](CN(C)Cc1ccncc1)OCCCC[C@H](C)O2,0.1
COc1ccc(CN2C(C)Cc3cc(OC)c(OC)cc3C2C)cc1 (stereo not drawn),1.0
C[C@@H]1CN([C@@H](C)CO)C(=O)c2cc(NS(C)(=O)=O)ccc2O[C@H]1CN(C)Cc1ccc(C(=O)Nc2ccccc2N)cc1,1.2
CC(C)NC(=O)N(C)C[C@@H]1Oc2ccc(NS(C)(=O)=O)cc2CC(=O)N([C@H](C)CO)C[C@H]1C,-1.0
C[C@@H]1CN([C@H](C)CO)C(=O)Cc2cc(NC(=O)Cc3ccccc3)ccc2O[C@@H]1CN(C)C,0.7
C[C@H]1CCCCO[C@@H](CN(C)C(=O)Nc2ccc(C(F)(F)F)cc2)[C@@H](C)CN([C@@H](C)CO)C(=O)c2cc(NC(=O)Nc3ccc(F)cc3)ccc2O1,-0.4
C[C@@H]1CCCCO[C@@H](CN(C)C)[C@H](C)CN([C@H](C)CO)C(=O)c2cc(NS(=O)(=O)c3ccc(Cl)cc3)ccc2O1,-0.5
C[C@@H]1CN([C@H](C)CO)C(=O)Cc2cc(NC(=O)C3CC3)ccc2O[C@H]1CN(C)Cc1ccc(-c2ccccc2)cc1,-0.5
COc1ccc(S(=O)(=O)Nc2ccc3c(c2)CC(=O)N([C@H](C)CO)C[C@H](C)[C@@H](CN(C)C(=O)Nc2c(C)noc2C)O3)cc1,0.2
C[C@H](CO)N1C[C@H](C)[C@H](CN(C)Cc2ccc3c(c2)OCO3)Oc2ncc(C#Cc3ccccc3)cc2C1=O,0.5
O=C(Nc1ccccc1)C1=C[C@H](c2ccc3c(c2)OCO3)C[C@H](OCc2ccc(CO)cc2)O1,0.7&-1.4
C[C@H]1CCCCO[C@@H](CN(C)C(=O)Nc2ccc3c(c2)OCO3)[C@@H](C)CN([C@@H](C)CO)C(=O)c2cc(NS(=O)(=O)c3cccs3)ccc2O1,1.5
C[C@@H]1CN([C@H](C)CO)C(=O)Cc2cc(NC(=O)CCC(F)(F)F)ccc2O[C@H]1CN(C)S(=O)(=O)c1ccc(F)cc1,0.0
COc1ccc(S(=O)(=O)Nc2ccc3c(c2)C(=O)N([C@@H](C)CO)C[C@@H](C)[C@@H](CN(C)S(=O)(=O)c2ccc(OC)cc2)OCCCC[C@H](C)O3)cc1,-0.5
Cc1noc(C)c1S(=O)(=O)N(C)C[C@H]1OCc2cnnn2CCCC(=O)N([C@H](C)CO)C[C@H]1C,-0.9
C[C@@H]1CN([C@H](C)CO)C(=O)CCCn2nncc2CO[C@@H]1CN(C)C(=O)Nc1ccccc1F,1.4
C[C@@H]1CCCCO[C@H](CN(C)C(=O)Nc2ccc(C(F)(F)F)cc2)[C@@H](C)CN([C@H](C)CO)C(=O)c2cc(NC(=O)Nc3ccc(C(F)(F)F)cc3)ccc2O1,-0.3

# A different layout for four compounds above:
SMILES: C[C@@H]1CCCCO[C@H](CN(C)C(=O)Nc2ccc(C(F)(F)F)cc2)[C@@H](C)CN([C@H](C)CO)C(=O)c2cc(NC(=O)Nc3ccc(C(F)(F)F)cc3)ccc2O1
  A1 apoptosis 2 = -0.3

SMILES: C[C@@H]1CCCCO[C@@H](CN(C)C)[C@H](C)CN([C@H](C)CO)C(=O)c2cc(NS(=O)(=O)c3ccc(Cl)cc3)ccc2O1
  A1 apoptosis 2 = -0.5

SMILES: COc1ccc(S(=O)(=O)Nc2ccc3c(c2)CC(=O)N([C@H](C)CO)C[C@H](C)[C@@H](CN(C)C(=O)Nc2c(C)noc2C)O3)cc1
  A1 apoptosis 2 = 0.2

SMILES: C[C@@H]1CN([C@H](C)CO)C(=O)Cc2cc(NC(=O)C3CC3)ccc2O[C@H]1CN(C)Cc1ccc(-c2ccccc2)cc1
  A1 apoptosis 2 = -0.5

# (further entries)
SMILES,A1 apoptosis 2
C[C@H]1CCCCO[C@@H](CN(C)Cc2ccncc2)[C@@H](C)CN([C@@H](C)CO)C(=O)c2cc(NC(=O)Nc3cccc4ccccc34)ccc2O1,-1.0
C[C@@H]1CCCCO[C@@H](CN(C)C(=O)c2ccccc2)[C@H](C)CN([C@@H](C)CO)C(=O)c2cc(NS(=O)(=O)c3cn(C)cn3)ccc2O1,-0.5
COC(=O)C(CC#Cc1ccc2c(c1)[C@]1(C(=O)N2)[C@H](C(N)=O)[C@H]2C(=O)O[C@H](c3ccccc3)[C@H](c3ccccc3)N2[C@@H]1c1ccc(O)cc1)C(=O)OC,0.0
Cc1noc(C)c1S(=O)(=O)N(C)C[C@@H]1Oc2ccc(NC(=O)Nc3ccccc3)cc2CC(=O)N([C@@H](C)CO)C[C@@H]1C,-1.6
C[C@@H]1CN([C@@H](C)CO)C(=O)c2cccc(NC(=O)Nc3ccc(F)cc3)c2O[C@@H]1CN(C)Cc1ccc(-c2ccccc2)cc1,-0.4
C[C@@H]1CCCCO[C@@H](CN(C)C(=O)Cc2ccccc2)[C@@H](C)CN([C@H](C)CO)C(=O)c2cc(NC(=O)NC3CCCCC3)ccc2O1,-0.6
Cc1ccc(/C=N/NC(=O)CCCCCCC(=O)NO)o1,0.4
CNC[C@@H]1Oc2ccc(NC(=O)CCN3CCOCC3)cc2C(=O)N([C@@H](C)CO)C[C@@H]1C,-0.3
C[C@@H]1CCCCO[C@@H](CN(C)Cc2ccccc2)[C@@H](C)CN([C@@H](C)CO)C(=O)c2cc(NS(=O)(=O)c3ccccc3)ccc2O1,-0.8
C[C@@H]1CN([C@H](C)CO)C(=O)c2cc(NC(=O)Nc3ccc(F)cc3)ccc2O[C@H]1CN(C)C(=O)NC1CCCCC1,0.0
CNC[C@H]1Oc2ccc(NC(=O)Nc3cccc4ccccc34)cc2C(=O)N([C@H](C)CO)C[C@H]1C,0.2
CNC[C@H]1Oc2ccc(NS(=O)(=O)c3ccc(F)cc3)cc2C(=O)N([C@@H](C)CO)C[C@H]1C,0.1
COc1ccc(S(=O)(=O)N(C)C[C@H]2Oc3ccc(NC(=O)Nc4ccccc4)cc3C(=O)N([C@@H](C)CO)C[C@H]2C)cc1,0.0
Cc1ccc(S(=O)(=O)Nc2ccc3c(c2)C(=O)N([C@H](C)CO)C[C@H](C)[C@H](CN(C)C(=O)C2CCCCC2)OCCCC[C@H](C)O3)cc1,1.2
CC(C)NC(=O)Nc1ccc2c(c1)C(=O)N([C@H](C)CO)C[C@H](C)[C@@H](CN(C)S(=O)(=O)c1ccc(F)cc1)OCCCC[C@H](C)O2,1.1
CNC[C@H]1Oc2ccc(NS(=O)(=O)c3cn(C)cn3)cc2CC(=O)N([C@H](C)CO)C[C@H]1C,-0.8
Cc1noc(C)c1NC(=O)N(C)C[C@@H]1OCCCC[C@@H](C)Oc2ccc(NC(=O)c3ccccc3)cc2C(=O)N([C@H](C)CO)C[C@H]1C,-1.1
O=C(C1=C[C@@H](c2ccc3c(c2)Cc2ccccc2-3)C[C@@H](OCc2ccc(CO)cc2)O1)N1CCN(Cc2ccc3c(c2)OCO3)CC1,-1.3
C[C@@H]1CN([C@H](C)CO)C(=O)Cc2cc(NS(=O)(=O)c3ccc(Cl)cc3)ccc2O[C@@H]1CN(C)CC1CC1,-0.7
C[C@@H]1CN([C@H](C)CO)C(=O)c2cc(NC(=O)Nc3ccc4c(c3)OCO4)ccc2O[C@@H](C)CCCCO[C@@H]1CN(C)S(=O)(=O)c1ccccc1,1.1
COCCOC(=O)N1C(=O)[C@@]2(c3cc(C#CC4=CCCCC4)ccc31)[C@H](c1ccc(O)cc1)N1[C@H](c3ccccc3)[C@H](c3ccccc3)OC(=O)[C@H]1[C@@H]2C(=O)NC[C@H](O)c1ccccc1,-0.2
C[C@H]1CCCCO[C@H](CN(C)S(=O)(=O)c2ccc(F)cc2)[C@@H](C)CN([C@@H](C)CO)C(=O)c2cc(NC(=O)Cc3ccccc3)ccc2O1,-1.3
CNC[C@H]1OCCCC[C@H](C)Oc2ccc(N(C)C)cc2C(=O)N([C@H](C)CO)C[C@@H]1C,-0.6
